Screens (PubChem)
Mtb H37Rv: Mycobacterium tuberculosis H37Rv growth inhibition, cell based, confirmatory dose response (AID 1949). most inactive calls were filed without a number and no value below 0 was filed. 100,000 tested, 1.6% active. inhibition, % at 10 µg/mL, or IC50 in µg/mL where a hit was titrated. M. tuberculosis H37Rv growth inhibition;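 active = confirmed in a dose series; inconclusive = about 50% or more but not retested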;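 note: bacteria grown 7 days with compound before Alamar blue readout; 0% = untreated bacteria and 100% = reference antibiotic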
Active calls of the source: *; i = inactive; ? = inconclusive. An excerpt, so the mix of outcomes need not match the whole.

canonical_smiles,Mtb H37Rv
CCOC(=O)C1=C(C)NC(=O)C(C(N)=O)C12CCCC2 (stereo unspecified),1%
CCN1CCC(NC(=O)c2cc(OC)c(OC)cc2OC)CC1,i
Cc1cc(CSc2ccccc2)ccc1NS(=O)(=O)c1cccs1,2%
CCn1c(SCC(=O)N2CCN(c3ccc(F)cc3)CC2)nc2ccccc2c1=O,i
Cc1ccc(Cl)cc1NC(=O)CSc1nnc(CNC(=O)c2cccc([N+](=O)[O-])c2)n1C,i
O=S(=O)(Nc1nc2c(s1)CCCC2)c1ccc(Br)cc1,i
CCOC(=O)c1ccc2ncc(C(=O)OCC)c(NCCO)c2c1,i
CC(=O)Nc1ccc(NC(=O)CC2Nc3cc(C)c(C)cc3NC2=O)cc1 (stereo unspecified),i

New compounds follow.
canonical_smiles,Mtb H37Rv
Cn1c(Cc2ccccc2)nnc1SCC(=O)Nc1ccccc1C(F)(F)F,i
Cc1cccc(-n2c(-c3ccccc3Cl)n[nH]c2=S)c1,i
Cc1ccc(C(=O)NC(=S)Nc2ccc3oc(-c4cccnc4)nc3c2)c(C)c1,i
CC(C)c1ccc(N(CC(=O)Nc2cccc([N+](=O)[O-])c2)S(C)(=O)=O)cc1,i
O=C(COc1c(Cl)cc(Cl)cc1Cl)NNC(=O)Nc1ccc2c(c1)OCO2,i
Cc1ccc(S(=O)(=O)Nc2ccc(N)cc2)cc1,i
COc1ccc(S(=O)(=O)N(CC(=O)Nc2c(C)cc(C)cc2C)Cc2ccccc2)cc1,i
C=C1C2(C(=O)Nc3cc(C)ccc3OC)CCC(C2)C1(C)C (stereo unspecified),i

Carrying on.
canonical_smiles,Mtb H37Rv
CCc1nnc(NC(=O)c2cc(OC)c(OC)c(OC)c2Br)s1,i
CCC(=O)Nc1nc(-c2ccccc2)nc2sc(C(=O)OC)c(C)c12,7%
COc1ccc(NC(=S)NCCCN2CCN(c3ccc(F)cc3)CC2)cc1Cl,33%
CC(=O)C1=C(C)NC(SCC(N)=O)=C(C#N)C1c1cccs1 (stereo unspecified),1%
O=S(=O)(Cc1ccc2c(c1)OCO2)c1ccc2ccccc2c1,1%
C=CCSc1nnc(C)n1-c1ccc(Cl)cc1,i
O=C(Oc1ccc2oc3c(c2c1)CCCC3)c1ccccc1[N+](=O)[O-],i
CCOc1cc(C2NC(=O)NC(C)=C2C(C)=O)ccc1OC(=O)c1ccccc1 (stereo unspecified),i

(further entries)
canonical_smiles,Mtb H37Rv
COc1ccc(OC)c(CN2CCN(CCCc3ccccc3)CC2)c1,i
c1ccc(N2CCN(C3CCN(Cc4ccccn4)CC3)CC2)cc1,1%
O=C(Nc1ccc(Cl)cc1)NC1CC1,i
CCC(=O)NC(=S)Nc1cccc(NC(=O)c2ccco2)c1,i
Cc1ccc(S(=O)(=O)NC(=O)CSC#N)cc1,i
CCC1(C)Cc2c(sc3nc(SCC(=O)NC(c4ccccc4)c4ccccc4)nc(N)c23)CO1 (stereo unspecified),i
COc1cc(NC(=S)NC(=O)Cc2ccc(Cl)cc2)ccc1NC(=O)c1cccs1,9%
CCOCCCNC(=O)c1ccccc1F,i

Five structures already listed, ordered by count of non-hydrogen atoms, largest number first:
canonical_smiles,Mtb H37Rv
COc1cc(NC(=S)NC(=O)Cc2ccc(Cl)cc2)ccc1NC(=O)c1cccs1,9%
c1ccc(N2CCN(C3CCN(Cc4ccccn4)CC3)CC2)cc1,1%
CCC(=O)NC(=S)Nc1cccc(NC(=O)c2ccco2)c1,i
Cc1ccc(S(=O)(=O)NC(=O)CSC#N)cc1,i
CCOCCCNC(=O)c1ccccc1F,i

Carrying on:
canonical_smiles,Mtb H37Rv
COc1ccc(CNC(=S)Nc2cccc(C)c2C)cc1,i
O=C(Nc1ccc(Br)cc1)C1CC(O)CN1C(=O)OCc1ccccc1 (stereo unspecified),1%
COc1ccc(COc2ccc3c(C(F)(F)F)cc(=O)oc3c2)cc1,i
O=C(CSc1ccc(Cl)cc1)Nc1cccc2ccccc12,i
Cc1ccc(C(=O)N2CCc3ccccc32)cc1Br,i
CCOc1cc(C(Nc2cccnc2)c2ccc3cccnc3c2O)ccc1O (stereo unspecified),i
Cc1ccccc1OCC(=O)Nc1nnc(Cc2cccc(Br)c2)s1,i
COc1cccc(NC(=S)Nc2ccc(Br)cc2)c1,i

Additional compounds
canonical_smiles,Mtb H37Rv
C=CCn1c(SCC(=O)Nc2ccccc2CC)nnc1-c1cc(Br)ccc1O,i
COc1ccc(NC(=O)c2ccc(Oc3cc([N+](=O)[O-])cc(C(F)(F)F)c3)c(OC)c2)cc1,i
COc1ccc(CCNC2CC(=O)N(C3CCCCC3)C2=O)cc1OC (stereo unspecified),i
Cc1ccccc1C(=O)Oc1ccc(C=O)cc1Br,i
Nc1cc(N)nc(SCCCCSc2nc(N)cc(N)n2)n1,i
Cc1ccc(S(=O)(=O)N2C(=O)CCC2C(=O)NCc2ccccc2Cl)cc1 (stereo unspecified),i
COc1ccc([N+](=O)[O-])cc1NC(=O)c1ccc(C)c(Br)c1,i
CS(=O)(=O)N(CC(=O)Nc1ccccc1C(=O)N1CCOCC1)c1ccc(Cl)cc1,i

Carrying on:
canonical_smiles,Mtb H37Rv
O=C(NC1CCCCCC1)C1CCN(S(=O)(=O)c2cc(Cl)ccc2Cl)CC1,i
O=C(Nc1ccc(S(=O)(=O)Nc2ncccn2)cc1)C(Cc1ccccc1)N1C(=O)C2CCCCC2C1=O (stereo unspecified),i
S=C(NCCc1ccccc1)NCC1CCCO1 (stereo unspecified),i
O=C(NNC(=S)NCCCN1CCOCC1)c1ccccc1Cl,i
Cc1ccc(CN2CCN(/N=C\c3ccc(Cl)cc3)CC2)cc1,3%
Cc1cc(F)ccc1NC(=S)Nc1ccc(S(=O)(=O)Nc2ncccn2)cc1,i
OC1(c2cccc3ccccc23)CCN(Cc2ccccc2)C1 (stereo unspecified),12%
COc1ccc(CNC(=O)CSc2nnc(C(c3ccccc3)c3ccccc3)n2C)cc1,i

(further entries)
canonical_smiles,Mtb H37Rv
COc1cccc(-c2nc(SCC(=O)Nc3ccc(Cl)cc3)[nH]c(=O)c2C#N)c1,i
COc1cccc(OC)c1C(=O)Nc1ccc(S(=O)(=O)N(C)Cc2ccccc2)cc1,i
C=C1C2(C(=O)NCCCn3ccnc3)CCC(C2)C1(C)C (stereo unspecified),i
Cc1nc2c(o1)C1(C(=O)N2C)C(C#N)=C(N)N(c2ccccc2)c2ccccc21 (stereo unspecified),6.3µg/mL*
CCCC(CCC(=O)Nc1ccccn1)C(=O)O (stereo unspecified),2%
CCCc1[nH]nc2c1C(c1c(OC)cc(OC)cc1OC)C(C#N)=C(N)O2 (stereo unspecified),1%
CCCc1cc(C(N)=O)c(NC(=O)c2ccco2)s1,i
CN(C)C(=O)COc1cc(OCC(=O)N(C)C)c2c(=O)cc(-c3ccccc3)oc2c1,i

(listing goes on)
canonical_smiles,Mtb H37Rv
CC(NC(=O)c1cccnc1)c1ccc2c(c1)OCO2 (stereo unspecified),i
O=C1CC(N2CCC(O)(c3ccc(Cl)cc3)CC2)C(=O)N1Cc1ccc(N2CCCC2=O)cc1 (stereo unspecified),i
COc1cc(OC)c(NC(=O)Cc2ccc(OC)c(OC)c2)cc1Cl,i
COc1cc(OC)c(C(=O)NC23CC4CC(CC(C4)C2)C3)cc1OC,2%
CC(C)(C)c1cc(C(=O)NCc2ccco2)ccn1,i
O=C(Nc1ccc(C(F)(F)F)cc1)C1CCN(C(=O)c2ccc(Cl)cc2Cl)CC1,i
COc1ccc(CCN2C(=O)N(c3ccc(F)cc3)C(=O)C2CC(=O)Nc2ccc(F)cc2)cc1 (stereo unspecified),2%
CCN(CC)c1ccc(NC(=O)C2CCCC2)cc1,?

(further entries)
canonical_smiles,Mtb H37Rv
COc1ccc(Cl)cc1NC(=O)C(=O)NCC1CCCO1 (stereo unspecified),i
Cc1ccc(S(=O)(=O)N(CC(=O)NC2CC2)Cc2ccccc2Cl)cc1,i
CCOc1ccc(NC(=O)c2c(NC(=O)CN3CCCCCC3)sc3c2CCC3)cc1,0%
CC(=O)Cc1nsc(NC(=O)c2ccc(-c3cccc(C(F)(F)F)c3)o2)n1,i
COc1ccc(CCCC(=O)O)c(C)c1,i
CNC(=S)NCCCN1CCN(c2ccc(F)c(Cl)c2)CC1,i
Cc1oc2nc(SCC(=O)N3CCCCC3)nc(N)c2c1C,i
CCOC(=O)c1c[nH]c2c(OC)cccc2c1=O,0%

(more compounds)
canonical_smiles,Mtb H37Rv
COc1ccccc1CNC(=O)C(C)Oc1cccc(Cl)c1 (stereo unspecified),i
CCOC(=O)c1c(NC(=O)c2oc3ccccc3c2C)sc2c1CCC2,i
COC(=O)C1=CN(C2CCCC2)C=C(C(=O)OC)C1c1ccccc1Cl,6%
Cc1ccc(NC(=O)C(C)n2cc([N+](=O)[O-])cn2)cc1C (stereo unspecified),i
Cc1ccccc1NC(=O)CC(C(=O)O)N(C)C (stereo unspecified),0%
O=C(NCc1ccco1)C1(c2ccc(Br)cc2)CCCC1,i
CCOC(=O)CNC(=O)NC1CCCCC1,i
O=C(Nc1nnc(-c2cc3ccccc3o2)s1)c1ccccc1,1%

(continued)
canonical_smiles,Mtb H37Rv
CCC(=O)NC(=S)Nc1ccc(NC(=S)NC(=O)c2ccccc2Cl)cc1,i
CC(=O)Nc1ccc(S(=O)(=O)Nc2ccc(Cl)cc2F)cc1,i
Nc1nnc(SCC(=O)NC2CCCCC2)n1-c1ccccc1,i
O=C(c1ccc2c(c1)C(=O)N(CC1CCCO1)C2=O)c1ccc2c(c1)C(=O)N(CC1CCCO1)C2=O (stereo unspecified),i
CCc1ccccc1NC(=O)c1cc(-n2cnnc2)ccc1Cl,i
O=C(Nc1nc(C23CC4CC(CC(C4)C2)C3)cs1)c1ccco1,19%
COc1ccc(S(=O)(=O)N2CCCC(C(=O)NCC3CCCO3)C2)cc1 (stereo unspecified),i
CCSc1nc2ccc(I)cc2c(=O)n1CC,4%

Remaining list, next part.
canonical_smiles,Mtb H37Rv
CCC(CC)C(=O)Nc1cccc(C(=O)NC(C)c2ccccc2)c1 (stereo unspecified),i
COC(=O)c1ccc(OC(=O)CSc2ccc(C(F)(F)F)cc2[N+](=O)[O-])cc1,i
S=C(NCCCN1CCOCC1)NC1CCCC1,i
COc1cc2c(cc1OC)C(c1ccccc1OC)CC(=O)N2 (stereo unspecified),2%
Cc1cccc(NC(=O)c2ccc(OCC(=O)Nc3cc(Cl)cc(Cl)c3)cc2)c1C,i
CC(=O)c1ccc(NC(=O)C(F)(F)F)cc1,i
CC(C(=O)Nc1ccccc1-c1ccccc1)N(c1ccccc1)S(C)(=O)=O (stereo unspecified),i
COc1ccc(Cl)cc1NC(=S)Nc1ccccc1-c1ccccc1,i

(continued)
canonical_smiles,Mtb H37Rv
COc1ccccc1NC(=O)COc1ccc(Cl)cc1CO,8%
O=C(Nc1ccccc1C(=O)O)c1cccc(NS(=O)(=O)c2ccc(Cl)cc2)c1,i
CC(C)(C)NC(=O)c1cccc(NC(=O)CSc2ccc(Cl)cc2)c1,i
CCOc1ccccc1NC(=O)NC(=O)C(F)(F)F,i
Cc1ccc2c(C(=O)N3CCN(c4ccccc4)CC3)cc(-c3cccnc3)nc2c1C,i
O=C(O)CCCn1c(-c2cccc([N+](=O)[O-])c2)nc(=S)c2c1CCCC2,i
O=C(NCCc1ccccc1)c1ccc(S(=O)(=O)c2cccc(S(=O)(=O)N3CCOCC3)c2)cc1,i
O=c1[nH]c2ccccc2c(=O)n1-c1ccccc1F,i

The closing 4 entries of the part before lead into the next:
canonical_smiles,Mtb H37Rv
Cc1ccc2c(C(=O)N3CCN(c4ccccc4)CC3)cc(-c3cccnc3)nc2c1C,i
O=C(O)CCCn1c(-c2cccc([N+](=O)[O-])c2)nc(=S)c2c1CCCC2,i
O=C(NCCc1ccccc1)c1ccc(S(=O)(=O)c2cccc(S(=O)(=O)N3CCOCC3)c2)cc1,i
O=c1[nH]c2ccccc2c(=O)n1-c1ccccc1F,i
Cc1ccc(C)c(NC(=S)NCCc2ccc(S(N)(=O)=O)cc2)c1,i
S=C(NCc1ccc(Cl)cc1)Nc1ncn(Cc2ccc(Cl)c(Cl)c2)n1,i
CCCCNC(=O)CSc1nc2ccc(I)cc2c(=O)n1-c1ccccc1,i
Cc1ccc(C(=O)CC(Nc2ccc3ccccc3c2)c2cccnc2)cc1 (stereo unspecified),43%
O=C(NC(=S)Nc1nc2c(Cl)c(Cl)ccc2s1)c1ccco1,i
CC(=O)c1c(O)n(C)c(=S)n(C)c1=O,i
Cc1ccc(S(=O)(=O)N(C)CC(=O)Nc2ccc(C)c(Cl)c2)cc1,i
Cc1ccc(C)c(OCC(=O)Nc2cc(Cl)c(Cl)cc2Cl)c1,i

Following part
canonical_smiles,Mtb H37Rv
Cc1ccc(C(=O)Nc2ccccn2)cc1S(=O)(=O)N1CCOCC1,i
COc1cc2ccccc2cc1C(=O)NCCOC12CC3CC(CC(C3)C1)C2,46%
O=C(NCCCn1ccnc1)C1CC2CCC1C2 (stereo unspecified),i
Cc1ccc(NC(=O)c2ccccc2Cl)cc1C,i
Cc1nc2c(o1)NC(N)=C(C#N)C21CCSCC1,i
N#CCc1ccc(NC(=O)c2ccc(CSc3ccccc3)cc2)cc1,i
CC(C)Cn1c(SCC(=O)Nc2ccccc2Cl)nnc1-c1ccc(Cl)cc1,i
Cn1c(/C(C#N)=C/c2ccncc2)nc2ccccc21,5%

More structures:
canonical_smiles,Mtb H37Rv
Cc1ccc(C(=O)Nc2ccc(Cl)cc2)cc1I,i
O=C(Nc1ccc(I)cc1C(=O)NCc1ccccc1)c1ccccc1Cl,32%
O=C(NC12CC3CC(CC(C3)C1)C2)c1ccccc1C(=O)NC12CC3CC(CC(C3)C1)C2,i
O=[N+]([O-])c1ccc(CSc2nnc(-c3cccs3)n2-c2ccccc2)cc1,3%
